Cruzain noTriton: qHTS Assay for Promiscuous and Specific Inhibitors of Cruzain (without detergent); purified cruzain, Z-FR-AMC fluorescence, no detergent; Potency, µM, inactives show max response, negative = inhibition, most hits filed as inhibitors; Cruzipain (Trypanosoma cruzi), P25779; 200,000 compounds, 2.3% hits;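 note: plate controls were enzyme without inhibitor for no effect and buffer without enzyme for full effect; nearly all actives have a fitted effect of over 40% in size; top concentration of the series not given in the record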
Target sequence (P25779 123-467 limits assumed): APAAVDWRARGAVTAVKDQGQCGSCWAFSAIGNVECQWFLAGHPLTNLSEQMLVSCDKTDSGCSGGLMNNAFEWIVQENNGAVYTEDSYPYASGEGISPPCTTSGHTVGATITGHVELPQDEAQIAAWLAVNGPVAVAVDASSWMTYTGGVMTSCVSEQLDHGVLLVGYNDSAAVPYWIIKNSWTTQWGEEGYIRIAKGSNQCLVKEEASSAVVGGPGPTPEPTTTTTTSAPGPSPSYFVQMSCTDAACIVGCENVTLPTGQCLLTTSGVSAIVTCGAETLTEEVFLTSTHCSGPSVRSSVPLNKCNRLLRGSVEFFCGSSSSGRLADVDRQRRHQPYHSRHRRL
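Purified cruzain at 1.5 nM, pre-incubated 15 min with compound at room temperature in 100 mM sodium acetate pH 5.5, 5 mM DTT, 0.00005% Triton X-100. Reaction started with 2 uM Z-FR-AMC; AMC fluorescence increase over 60 s gives rate.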
NS1 function inh: qHTS Assay for Inhibitors of Influenza NS1 Protein Function | S. cerevisiae slowed by influenza A NS1, growth recovery by OD600 | Potency, µM (titrated, usually from 46.1 µM), without a hit: at the highest dose activity, positive = more growth | 270,000 compounds, 0.4% hits | AID 2326, 2010; active means well fitted rising curve with a large enough effect; inconclusive means small, poorly fitted or top-dose-only effect; inactive means no such curve, though single readings can be large or run the other way; note: nearly all actives have a fitted effect of over 50% in size
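Read-out: OD600 growth recovery of NS1-expressing budding yeast. Cells grown overnight at 30C in -URA glucose medium, washed, resuspended and diluted 1:100 in 2% galactose assay medium, pH 6.0. Same strain lacking NS1 served as positive control.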
Cruzain Triton: qHTS Assay for Promiscuous and Specific Inhibitors of Cruzain (with detergent). AID 1478, 2009. Potency, µM, inactives show max response, negative = inhibition, actives largely listed as inhibitors. 200,000 compounds, 0.43% hits. purified cruzain, Z-FR-AMC fluorescence, 0.01% Triton;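 note: plate controls were neutral wells for no effect and buffer without enzyme for full effect; nearly all actives have a fitted effect of over 40% in size; top concentration of the series not given in the record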
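Read-out: AMC fluorescence (360 nm excitation, 450 nm emission), four reads over 2 min, first-to-third difference used. Conditions: cruzain 1.5 nM, Z-FR-AMC 2 uM, pH 5.5 acetate, 5 mM DTT, 0.01% Triton X-100.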
SARS PLpro yeast: qHTS of Yeast-based Assay for SARS-CoV PLP | 330,000 compounds, 0.19% hits | Potency, µM (top dose mostly 32.9 µM), for the others: top-dose activity, positive = growth rescue | S. cerevisiae expressing SARS-CoV PLpro, growth rescue; control for the full effect not named in the record; active means well fitted rising curve with a large enough effect; inconclusive means small, poorly fitted or top-dose-only effect; inactive means no such curve, though single readings can be large or run the other way; note: 0% is about no effect; nearly all actives have a fitted effect of over 55% in size; growth read by luminescence after 48 h
Active calls of the source: *; u = inconclusive; x = not tested or not shown. Unless noted, calls come from the whole dose curve; as a rule, active = well fitted curve in the direction sought with a large enough effect; inconclusive = small, poorly fitted or top-dose-only effect, or another doubt; inactive = no such curve, though single readings can be large; an effect the other way counts as inactive or inconclusive. Potency is the fitted concentration of half-maximal effect. Some of the compounds tested; the hit share may differ from the screen's.

SMILES	Cruzain noTriton	NS1 function inh	Cruzain Triton	SARS PLpro yeast
C=C(CC(=O)O)C(=O)O (tested in a mixture with another compound)	-3%	u	-2.7%	x
Fc1cccc(CSc2ncnc3c2ncn3[C@H]2CCCS2)c1	-2%	-16%	2.5%	x
C[C@H]1CCCC=CC2C[C@H](OC(=O)CN(C)C)C[C@@H]2[C@@H](O)/C=C\C(=O)O1 (stereo partly drawn)	2%	-6%	-2.1%	x
O=c1oc2ccccc2c(O)c1/C=N/c1nc(-c2ccc(O)c(O)c2)cs1	4%	18%	1.5%	x
O=C(O)c1ccc(S(=O)(=O)N=Nc2c(O)[nH]c3ccccc23)cc1	-5%	-2%	2.6%	x
Cn1ccnc1C[C@@](C)(O)c1ccccc1	1%	-3%	6.1%	x
C[N+](C)(C)CC(=O)N/N=C\c1c(O)ccc2ccccc12	3%	-3%	3.1%	x
O=C(O)[C@@H](O)Cc1ccccn1	2%	-6%	-3.6%	x
Oc1c(Br)cc(CN(Cc2cc(Br)c(O)c(Br)c2)C2CCCCC2)cc1Br	-7%	-8%	-2.6%	x
COc1ccc(C[C@H](O)CN2CCOCC2)cc1	2%	6%	4.3%	x
O=[N+]([O-])c1ccc(Cl)c(CNc2ncnc3c2ncn3[C@@H]2CCCCO2)c1	0%	-6%	1.2%	x
N=C(c1ccc2ccccc2c1)c1ccccc1Cc1ccccc1	-12%	-13%	3.4%	x
CC1(C)[C@@H]2CC[C@@]1(CS(=O)(=O)Nc1ccccc1)C(=O)C2	4%	1%	7.8%	x
NC1=C2NC=N[C@@H]2N(C/C=C\c2ccccc2)C=N1	-3%	-4%	2.1%	x
CC(CO)(CO)Nc1ncnc2ccccc12	8%	3%	0.2%	x

Retrieved by compound from the list above, 7 records:
SMILES	Cruzain noTriton	NS1 function inh	Cruzain Triton	SARS PLpro yeast
Fc1cccc(CSc2ncnc3c2ncn3[C@H]2CCCS2)c1	-2%	-16%	2.5%	x
Cn1ccnc1C[C@@](C)(O)c1ccccc1	1%	-3%	6.1%	x
Oc1c(Br)cc(CN(Cc2cc(Br)c(O)c(Br)c2)C2CCCCC2)cc1Br	-7%	-8%	-2.6%	x
C[C@H]1CCCC=CC2C[C@H](OC(=O)CN(C)C)C[C@@H]2[C@@H](O)/C=C\C(=O)O1 (stereo partly drawn)	2%	-6%	-2.1%	x
O=C(O)c1ccc(S(=O)(=O)N=Nc2c(O)[nH]c3ccccc23)cc1	-5%	-2%	2.6%	x
CC1(C)[C@@H]2CC[C@@]1(CS(=O)(=O)Nc1ccccc1)C(=O)C2	4%	1%	7.8%	x
O=c1oc2ccccc2c(O)c1/C=N/c1nc(-c2ccc(O)c(O)c2)cs1	4%	18%	1.5%	x

Other results follow.
SMILES	Cruzain noTriton	NS1 function inh	Cruzain Triton	SARS PLpro yeast
CC(C)(C)c1ccc(C[C@H](C(=O)O)N2C(=O)c3ccc(C(=O)O)cc3C2=O)cc1	x	x	x	u
Cc1noc(C)c1-c1ccc2ncnc(NCc3cccc(-c4ccccc4)c3)c2c1	x	x	x	-7%
O=C(NN1C(=O)/C(=C/c2cc([N+](=O)[O-])ccc2O)SC1=S)c1ccccc1O	x	x	x	-12%
O=C(COC(=O)c1cncc(Br)c1)NC12CC3CC(CC(C3)C1)C2	x	x	x	12%
C[C@]12CCC3C(CC[C@H]4C[C@H](O)CC[C@]34C)C1C[C@@H](CCCCl)[C@@H]2O (stereo partly drawn)	x	x	x	-16%
C#CCOCCOCCOCCNc1nc(N2CCN(C(=O)CCCCCCCCCCNC(=O)[C@H]([C@@H](C)CC)n3cc(CCCCN=C(N)N)nn3)CC2)nc(N2CCN(C(=O)CCCCCCCCCCNC(=O)[C@H]([C@@H](C)CC)n3cc(CCCCN=C(N)N)nn3)CC2)n1	x	x	x	-2%
CC(C)CC1NC(=O)c2ccccc2-n2c1nc1ccc(Cl)cc1c2=O (stereo not drawn)	x	x	x	3%
COc1cc(C2OC(=O)c3c2ccc(OC)c3OC)ccc1O (stereo not drawn)	x	x	x	6%
Cc1ccc(C2=NCN(c3ccc(C(=O)O)cc3)C(=S)N2)cc1	x	x	x	0%
Nc1ccc(Nc2cc(O)c3ncccc3c2)cc1	x	x	x	4%
CCN1CCN(c2ccc(NC(=O)c3cnccn3)cc2)CC1	x	x	x	-3%
COc1ccc(N2CCN(C(=O)c3ccc4c(c3)[nH]c(=S)n3c5ccccc5nc43)CC2)cc1	x	x	x	-1%
CCc1ccc(/C=C2/Sc3ccccc3N(CC(=O)NCCCOC)C2=O)cc1	x	x	x	0%
COc1cccc(NC(=O)C(c2ccccc2)N2CCNC(=O)C2)c1 (stereo not drawn)	x	x	x	-5%
S=C(Nc1ccccc1)N1CCN(C(=S)Nc2ccccc2)CC1	x	x	x	4%

Whole records, quoted from the list. Values in the order: Cruzain noTriton | NS1 function inh | Cruzain Triton | SARS PLpro yeast
Record of `CCN1CCN(c2ccc(NC(=O)c3cnccn3)cc2)CC1` = x | x | x | -3%
Record of `C[C@]12CCC3C(CC[C@H]4C[C@H](O)CC[C@]34C)C1C[C@@H](CCCCl)[C@@H]2O` (stereo partly drawn) = x | x | x | -16%

Remaining list, next part.
SMILES	Cruzain noTriton	NS1 function inh	Cruzain Triton	SARS PLpro yeast
O=C(CN1N=C(c2ccc(Cl)cc2)CCC1=O)NCc1cccs1	x	x	x	1%
Cn1c2cc(B(O)O)sc2c2cnn(Cc3c(F)cccc3Cl)c(=O)c21	x	x	x	-2%
CC(C)CC1NC(=O)c2cc(Cl)ccc2-n2c1nc1cc(F)ccc1c2=O (stereo not drawn)	x	x	x	2%
Cc1cccc(C[C@H](C(=O)O)N2C(=O)c3ccc(C(=O)O)cc3C2=O)c1	x	x	x	2%
OC[C@H]1O[C@@H](Oc2cc(O)cc(/C=C/c3ccc(O)cc3)c2)[C@H](O)[C@@H](O)[C@@H]1O	x	x	x	1%
O=C(NCc1cc(C(F)(F)F)ccc1Cl)c1cccc2c1C(=O)c1ccc(Cl)cc1S2(=O)=O	x	x	x	2%
COc1ccc(C2Nc3ccccc3C(=O)N2Cc2ccccc2)cc1COc1ccc(Cl)cc1Cl (stereo not drawn)	x	x	x	-8%
Cn1c2cc(Br)sc2c2cnn(Cc3c(F)cccc3F)c(=O)c21	x	x	x	-6%
NC(=O)c1ccccc1C[C@H](C(=O)O)N1C(=O)c2ccc(C(=O)O)cc2C1=O	x	x	x	1%
CC(=O)NC(c1ccco1)c1cc(Cl)c2ccc(N(C)C)nc2c1O (stereo not drawn)	x	x	x	2%
CC[C@H](C)[C@@H](C(=O)NCCCCCCCCCCC(=O)N1CCN(C(=O)OC(C)(C)C)CC1)n1cc(CCCCN=C(NC(=O)OC(C)(C)C)NC(=O)OC(C)(C)C)nn1	x	x	x	4%
O=C1C(Cc2ccccc2)Nc2ncnc(N3CCc4ccccc4C3)c2N1Cc1ccc(Br)cc1 (stereo not drawn)	x	x	x	0%
CCCCn1c(=N)n(CC(=O)c2ccc([N+](=O)[O-])cc2)c2ccccc21	x	x	x	-1%
CC1(c2ccccc2)ON(c2ccccc2C(F)(F)F)C1=O (stereo not drawn)	x	x	x	1%
C[C@]12CCC3C(CC[C@H]4C[C@@H](O)CC[C@]34C)C1C[C@H](Br)[C@@H]2O (stereo partly drawn)	x	x	x	-23%
Cc1cc(NC(=O)CSc2ccc(-c3ccc4c(c3)OCO4)nn2)no1	x	x	x	-2%
Cc1ccc2c(c1)-n1c(nc3cc(C)ccc3c1=O)C(Cc1ccccc1)NC2=O (stereo not drawn)	x	x	x	3%
CN1CCc2c(sc(NC(=O)c3cc4cc([N+](=O)[O-])ccc4s3)c2C(N)=O)C1	x	x	x	-5%
CC(=O)N[C@@H](Cc1ccc(O)cc1)C(=O)N[C@H](C(=O)N[C@@H](C)C(=O)N[C@H](C#N)CC(=O)O)C(C)C	x	x	x	3%
COc1ccccc1-c1nc(SCC(=O)NCC2CCCO2)c2c(=O)n(C)c(=O)n(C)c2n1 (stereo not drawn)	x	x	x	5%
O=C(COC(=O)/C=C/c1ccc(Br)o1)Nc1ccccc1F	x	x	x	1%
Cc1ccc(C[C@H](C(=O)O)N2C(=O)c3ccc(C(=O)O)cc3C2=O)cc1	x	x	x	4%
O=C(CSc1cccc[n+]1[O-])Nc1ccc(N2CCOCC2)cc1	x	x	x	1%
O=C(O)c1ccc2c(c1)C(=O)N([C@H](Cc1ccc3ccccc3c1)C(=O)O)C2=O	x	x	x	5%
N#C/C(=C/c1ccc(-c2cc(C(=O)O)cc(C(=O)O)c2)o1)c1nc2ccccc2s1	x	x	x	0%
O=C1NC(=O)C2=Cc3ccc(O)cc3OC2(O)N1 (stereo not drawn)	x	x	x	0%
CC/C(=N\NC(C)=O)c1ccc(OC(F)F)cc1	x	x	x	1%
Cc1[nH]c2ccccc2c1-c1nc(-c2ccc(Cl)cc2)nnc1-c1ccccc1	x	x	x	1%
O=C(COC(=O)c1cccc([N+](=O)[O-])c1)c1ccc2c(c1)OCO2	x	x	x	-1%
CN(C)CCN(C(=O)c1ccc(N2C(=O)CCC2=O)cc1)c1nc2cc3c(cc2s1)OCCO3	x	x	x	-1%

In another format: 3 of the compounds above.
Cc1ccc2c(c1)-n1c(nc3cc(C)ccc3c1=O)C(Cc1ccccc1)NC2=O (stereo not drawn)
  Cruzain noTriton = x	NS1 function inh = x	Cruzain Triton = x	SARS PLpro yeast = 3%
CN1CCc2c(sc(NC(=O)c3cc4cc([N+](=O)[O-])ccc4s3)c2C(N)=O)C1
  Cruzain noTriton = x	NS1 function inh = x	Cruzain Triton = x	SARS PLpro yeast = -5%
CC(=O)N[C@@H](Cc1ccc(O)cc1)C(=O)N[C@H](C(=O)N[C@@H](C)C(=O)N[C@H](C#N)CC(=O)O)C(C)C
  Cruzain noTriton = x	NS1 function inh = x	Cruzain Triton = x	SARS PLpro yeast = 3%

Additional results.
SMILES	Cruzain noTriton	NS1 function inh	Cruzain Triton	SARS PLpro yeast
CCOC(=O)c1c(/N=C/C2C(=O)NC(=S)NC2=O)sc(C)c1C	x	x	x	-1%
OCc1cn(Cc2ccc(O)c3ncccc23)cn1	x	x	x	5%
COc1ccccc1CNC(=O)c1cn(C)c2ccc(S(=O)(=O)N3CCCCC3)cc2c1=O	x	x	x	0%
C[C@]12CC(=CO)C(=O)C[C@@H]1CC[C@@H]1[C@@H]2CC[C@@]2(C)[C@H]1CC[C@]2(C)O	x	x	x	-5%
c1cncc(CNc2ncnc3ccc(-c4ccco4)cc23)c1	x	x	x	1%
O=C(CSc1nc2[nH]ncc2c(=O)[nH]1)Nc1nccs1	x	x	x	0%
CC1CCN(CCC(=O)Nc2ccc3c(c2)OCCO3)CC1	x	x	x	0%
O=c1oc2ccc([N+](=O)[O-])cc2c(N2CCOCC2)c1[N+](=O)[O-]	x	x	x	0%
Cc1cc2c(s1)c1c(n2C)C(=O)N(Cc2ccccc2F)C1	x	x	x	-1%
CC1CCN(CCCNC(=O)c2ccc(Cn3c(=S)[nH]c4ccc(Br)cc4c3=O)cc2)CC1	x	x	x	-1%
C/C(=C\c1ccccc1)C1Nc2cccc3cccc(c23)N1	x	x	x	-14%
COc1ccc(CN2C(=O)C(Cc3ccccc3)Nc3ncnc(N4CCc5ccccc5C4)c32)cc1 (stereo not drawn)	x	x	x	2%
CN(C)CCNC(=O)c1cc(Sc2ccc(F)cc2)nc2ccccc12	x	x	x	0%
CC(=O)c1c(C)[nH]c(C(=O)OCC(=O)c2c(N)n(C)c(=O)n(C)c2=O)c1C	x	x	x	2%
N#Cc1nc(-c2ccc(F)cc2)oc1NCCCn1ccnc1	x	x	x	-1%
CCCC1(CCC)C(=O)NC(=Nc2ccc(C)cc2)NC1=O	x	x	x	1%

From PubChem BioAssay
